# HSV augment – enhancers of HSV replication in host cells, fold increase, host cell viability; HSV replication augmentation in cells; 220,000 compounds, 0.005% hits; maximum fold increase;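 active = peak rise of 1.5-fold or more in the series; tested in PC3 cells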;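 also: first round at 10 µM; read as green reporter fluorescence; hits show the peak of a series up to 25 µM; 1 = signal of infected wells without compound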
# Insulin prom inh – inhibitors of insulin promoter-driven GFP, primary screen, imaging, TRM-6 cells (human fetal islet line), eGFP reporter, cell count. reporter expression induced with tamoxifen. inhibition, % at 2 µM. 130,000 compounds, 0.9% hits. AID 1273, 2008;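 active = inhibition above the mean plus 3 SD, with well images judged a real hit on visual review, cut at about 60% in these data, passing the limit was not always enough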
# PKD1 kinase inh – inhibitors of human PKD1 kinase, biochemical, fluorescence polarization; Serine/threonine-protein kinase D1 (Homo sapiens), Q15139; PKD1 kinase fluorescence polarization assay; inhibition, %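 (about 10 µM by stock and volumes)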; 200,000 compounds, 0.056% hits; AID 797, 2007;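 active = inhibition of 50% or more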;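 also: controls were vehicle for no effect and a reference inhibitor for full effect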
# Target sequence (Q15139 whole entry, looked up): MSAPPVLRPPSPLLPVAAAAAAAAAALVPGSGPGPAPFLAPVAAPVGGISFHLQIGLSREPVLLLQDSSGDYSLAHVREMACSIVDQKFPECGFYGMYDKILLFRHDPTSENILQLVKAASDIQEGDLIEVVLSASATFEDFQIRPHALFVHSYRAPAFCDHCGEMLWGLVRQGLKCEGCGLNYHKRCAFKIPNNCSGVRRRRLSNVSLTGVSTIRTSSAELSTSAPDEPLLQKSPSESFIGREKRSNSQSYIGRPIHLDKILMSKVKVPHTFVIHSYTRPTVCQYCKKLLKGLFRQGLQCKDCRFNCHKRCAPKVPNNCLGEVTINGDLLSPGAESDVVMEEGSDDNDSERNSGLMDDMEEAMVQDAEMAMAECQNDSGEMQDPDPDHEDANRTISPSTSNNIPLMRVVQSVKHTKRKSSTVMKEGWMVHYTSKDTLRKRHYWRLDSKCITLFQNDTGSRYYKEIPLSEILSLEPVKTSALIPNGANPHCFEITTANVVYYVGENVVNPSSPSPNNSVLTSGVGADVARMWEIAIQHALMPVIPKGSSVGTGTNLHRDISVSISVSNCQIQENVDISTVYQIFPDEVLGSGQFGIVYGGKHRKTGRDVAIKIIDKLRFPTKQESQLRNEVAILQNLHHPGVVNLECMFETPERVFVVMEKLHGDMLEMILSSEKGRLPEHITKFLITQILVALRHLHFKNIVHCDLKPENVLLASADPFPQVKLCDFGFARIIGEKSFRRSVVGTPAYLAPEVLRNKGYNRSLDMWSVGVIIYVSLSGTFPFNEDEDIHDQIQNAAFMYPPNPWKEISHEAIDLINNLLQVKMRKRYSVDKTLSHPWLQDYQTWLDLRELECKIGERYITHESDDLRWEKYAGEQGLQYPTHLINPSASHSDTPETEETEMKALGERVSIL
# RGS16-Gao HTS – modulators of RGS16 binding to Galphao, primary screen, biochemical, human proteins, multiplexed bead flow cytometry. bead-based flow cytometry RGS16-Galphao binding, fluorescence; actives lie on both sides. binding response (% of control), % at 10 µM. 220,000 compounds, 0.38% hits;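 active = below 25% or above 175%, edge rows of some plates excepted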;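 also: Galphao activated by GDP with aluminum fluoride before binding; 100% = wells without compound and 0% = beads without RGS; some results beyond the cut were filed as inactive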
# GALR2 ag – GALR2 receptor agonists, primary screen, cell-based; GALR2-expressing cells, agonist activation read-out; activation, %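 (tested at 5 µM)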; 140,000 compounds, 0.48% hits;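 active = above mean plus 3 SD of all compounds, about 5% in these data, not always enough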;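 also: 0% = vehicle buffer wells and 100% = reference agonist at full effect; tested in CHO reporter cells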
# Insulin prom inh cell count – also measured in Insulin prom inh; calls as there; normalized cell count, %; measured here: cell count, toxicity; reference of the scale not given here;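 cells exposed to compound for 48 h; stained nuclei by imaging scaled within each plate; lower means fewer cells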
# HSV augment primary fold – further read-out of HSV augment, marked with its call; fold increase; compound at 10 µM; measured here: primary screen fold increase 10 uM; tested in PC3 cells;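 GFP signal in the first replicate; 1 = infected wells without compound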
# Active calls of the source: *; i = inactive; . = not tested or not shown.
SMILES,HSV augment,HSV augment primary fold,Insulin prom inh,Insulin prom inh cell count,PKD1 kinase inh,RGS16-Gao HTS,GALR2 ag
CCOc1ccc(-c2c[n+](=O)c3c(n2[O-])CCCC3)c(OCC)c1,i,0.99,22,79,-1,94,-1.3
CCCCC12CN3CCN(CC(C3)/C1=N\NC(=O)c1ccccc1N)C2,i,0.95,3,102,7,111,-0.5
Cc1nc(N2CCN(C(c3ccccc3)c3ccccc3)CC2)[nH]c(=O)c1C,i,0.88,14,94,-14,92,-3.9
COC(=O)/C(=C/c1cccc([N+](=O)[O-])c1)NC(=O)c1ccc(OC)cc1,.,.,-23,100,3,98,-0.3
CC(=O)C1=C(C)N(Cc2ccccc2)C(=O)N[C@@H]1c1cccc(C(F)(F)F)c1,i,0.94,-15,94,0,116,-1.4
COC(=O)c1ccc(-n2nnnc2SCC(=O)N2CCCCC2)cc1,i,0.92,.,.,11,102,-1.6
CCC(=O)N1CCC2(CC1)Oc1ccc(F)cc1C(=O)C21CC(c2ccc(Cl)cc2)=NO1 (configuration not stated),i,0.71,.,.,.,100,.
CN1CCN(c2ccc(Cl)cc2NC(=O)c2ccc(S(=O)(=O)N(C)C)cc2)CC1,i,0.97,.,.,-8,98,-0.3
OCCNCc1cc(Br)ccc1OCc1ccc(F)cc1,i,1.1,.,.,-5,102,.
Cc1ccc(C(=O)C(C)Sc2nnc(N)s2)cc1 (configuration not stated),i,0.93,.,.,4,101,.
O=C(NN1C(=O)c2ccccc2NC1c1ccco1)c1ccc(Br)cc1 (configuration not stated),i,0.87,-29,119,-3,96,.
CCOCc1c(C(=O)OCC(=O)/C(C#N)=C(\C)N)oc2ccccc12,i,0.93,.,.,0,99,.
Cc1ccc(N(Cc2ccc(C(=O)NCCSc3ccccn3)cc2)S(C)(=O)=O)cc1C,i,0.85,24,129,-8,100,-0.7
C=CCNC(=O)c1ccccc1NC(=O)COc1ccc(OC)cc1,i,0.99,.,.,2,101,.
COc1ccccc1/C=C(/C(=O)OCC(N)=O)c1ccccc1,i,1,5,107,-6,93,0.5
c1ccc(Cn2nnc3c(NCc4ccc5c(c4)OCO5)ncnc32)cc1,i,0.94,.,.,.,101,.
COC(=O)c1ccccc1NC(=O)CSc1nnc(Cc2ccc(Cl)cc2)o1,i,0.9,-81,121,-13,106,-3.7
Cc1ccc(-n2cc3c(=O)n(C)c(=O)n(C)c3c2)cc1C,i,1,23,124,2,106,1.2
COc1ccc(NC(=O)C(CCS(C)(=O)=O)N2C(=O)c3ccccc3C2=O)cc1 (configuration not stated),i,0.93,4,75,-3,103,-1.8
CCC(=O)N1CCc2cc(Br)cc(S(=O)(=O)C3(C(=O)OC)CC3)c21,i,0.9,-49,120,-7,102,-0.6
CCCNS(=O)(=O)/C=C/c1ccccc1,i,0.97,13,114,3,99,.
O=C(C1=C[C@H](C2CC2)C[C@H](OCc2ccc(CO)cc2)O1)N1CCN(Cc2ccccc2)CC1,i,0.88,.,.,1,101,.
COc1ccc(/C=N/Nc2ccc(C(F)(F)F)cc2[N+](=O)[O-])cc1,i,0.88,52,107,-6,85,-1.9
COC(=O)c1cc(COC(=O)c2nc3nc(C)cc(C)n3n2)oc1C,i,1,8,69,2,120,.
O=C1N(C2CCCC2)C[C@@H]2C[C@@H](c3cccn3-c3nccs3)N3CCC[C@@]123,i,0.96,.,.,-2,99,.
Cn1c(=O)c(-c2ccccc2)c(O)c2ccccc21,i,0.97,.,.,1,103,.
Fc1ccc(C2CC(c3ccco3)=Nc3ccccc3S2)cc1 (configuration not stated),i,1,0,81,10,96,.
O=S1(=O)CC(O)C(N=Nc2c(O)n(Cc3ccccc3)c3ccccc23)C1 (configuration not stated),i,1,.,.,.,104,.
CCn1cnc2sc(C(=O)N3CCN(Cc4ccc5c(c4)OCO5)CC3)c(C)c2c1=O,.,.,14,96,7,110,-0.6
Cc1cc(Br)ccc1NC(=O)CNC(=O)CSc1n[nH]c(N)n1,i,1.1,-3,124,-3,103,-0.4
Fc1ccc(CN(Cc2ccccc2)C(c2cccs2)c2nnnn2C2CCCCC2)cc1 (configuration not stated),i,1.1,29,120,-5,109,-2.6
CSc1ccc(/C=C/C(=O)NC23CC4CC(CC(C4)C2)C3)cc1,i,0.8,47,76,1,105,-1.8
CC(C)CC(=O)N1CCN(Cc2cccc([N+](=O)[O-])c2)CC1,i,1.1,.,.,-3,111,.
CC(C)CC(=O)NC(=S)Nc1sc2c(c1C(N)=O)CCC2,i,0.93,.,.,-3,101,.
COc1ccc(NC(=O)N2CCC(NC(=O)c3ccco3)CC2)cc1,i,0.89,12,78,1,106,-2.3
CC(=O)Nc1ccc(CN2CCN(CC(C)C)C(CCO)C2)cc1 (configuration not stated),i,1.2,.,.,7,103,.
O=C(N/N=C/c1ccc([N+](=O)[O-])cc1)c1cnccn1,i,1.1,.,.,.,98,.
CC(=O)Nc1c(C)nn(C(C)=O)c1C,i,0.95,7,94,10,56,-2.1
CC(C)COc1ccc(C/C(N)=N/n2cnnc2)cc1,i,0.99,.,.,2,104,.
Cc1cccc(-c2c3c(=O)n(C)c(=O)n(C)c3cn2C(C)(C)C)c1,i,0.99,.,.,3,103,-0.1
CCCCN(C(=O)c1cnc2n(c1=O)CCS2)c1ccccc1,i,0.96,.,.,5,105,-3.9
COc1cc(C(=O)Nc2ccccc2N2CCN(S(C)(=O)=O)CC2)cc(OC)c1OC,i,0.96,3,145,-7,100,-2.8
Fc1ccc(C2c3[nH]c4ccccc4c3CCN2CCCn2cccn2)cc1 (configuration not stated),i,1.1,.,.,.,98,.
CC1(C)NC(C(=O)O)Cc2c1[nH]c1ccccc21 (configuration not stated),i,1.1,-6,70,4,102,.
CC1CCCN(c2ccc([N+](=O)[O-])s2)C1 (configuration not stated),i,1,-92,173,-3,102,.
O=C(NC1c2ccccc2-c2ccccc21)N1CCOCC1,i,0.76,22,96,-7,105,-1.8
O=C(CCCCC(=O)N1CCOCCOCCOCC1)OCc1ccccc1,i,1.1,.,.,.,91,.
O=C(NC1CCCC1)C(c1ccc(N2CCOCC2)cc1)N(C(=O)c1ccco1)c1ccccc1F (configuration not stated),i,1.1,.,.,3,99,.
Cc1csc(NC(=O)c2ccncc2)n1,i,1.1,.,.,.,92,.
CCc1nnc(NC(=O)Nc2ccc(OC)cc2)s1,i,0.95,31,109,-5,108,0.6
COCCCNC(=O)Cn1cc(C(=O)c2cccs2)c2ccccc21,i,1.1,28,90,-7,108,-2.1
Cc1onc(-c2c(F)cccc2Cl)c1C(=O)OCN1C(=O)c2ccccc2C1=O,i,1,19,101,-15,102,-1.9
CNC(=O)CCc1[nH]c2ccccc2c1Sc1ccccc1,i,0.95,42,111,8,108,0.2
COc1ccc(C(=O)NCc2nnc(SCC(=O)N3CCCCC3)o2)cc1,.,.,46,86,-1,98,.
NC(=O)c1cccc2c1C(=O)N(C1CCCCC1)C2,i,0.93,.,.,13,101,-2.4
NNC(=S)NCc1cccnc1,i,1,0,102,-2,106,-1.9
O=c1cc(O)nc2n1CCCS2,i,0.9,-36,37,-14,105,-1.0
O=C(Nc1cccc(-c2nnc(-c3ccccc3)o2)c1)C1CCCCC1,i,0.82,-100,95,3,99,-1.4
CCOC(CNC(=O)c1cc(C)nn1-c1ccccc1)OCC,i,0.99,-4,81,-5,104,0.0
O=C(CSc1ncn[nH]1)N1N=C2/C(=C/c3ccccc3)CCCC2C1c1ccccc1 (configuration not stated),i,0.83,.,.,-1,101,0.0
# Continuation:
SMILES,HSV augment,HSV augment primary fold,Insulin prom inh,Insulin prom inh cell count,PKD1 kinase inh,RGS16-Gao HTS,GALR2 ag
CN(C)S(=O)(=O)c1ccc(NC(=O)c2ccncc2)cc1,i,0.99,.,.,4,118,.
COc1ccc(F)cc1S(=O)(=O)NC(Cc1ccccc1)C(N)=O (configuration not stated),.,.,-33,116,1,101,-2.6
COc1ccc(CNc2c(C(=O)O)cnc3c2cnn3C)cc1,i,0.92,.,.,-2,97,.
Cc1c(C(=O)Nc2cccc([N+](=O)[O-])c2)csc1-c1ccccc1,.,.,-4,97,-10,106,-2.7
Cc1nn(-c2ccccc2)c2ncc(C(=O)c3cc(Cl)ccc3O)cc12,i,0.93,23,158,-5,105,-1.9
CCOC(=O)c1sc(NC(=O)c2ccc(S(=O)(=O)N(CC)CC)cc2)nc1C,i,0.92,46,69,-6,101,-0.8
COC(=O)C1CCN(S(=O)(=O)c2ccc(NC(C)=O)cc2)CC1,i,0.88,31,178,5,105,0.6
Cc1c(NC(=O)COC(=O)c2ccc(Br)o2)c(=O)n(-c2ccccc2)n1C,i,1,.,.,-5,101,.
Cc1ccc(Nc2nnc(SCc3nc4ccccc4c(=O)[nH]3)s2)cc1,i,0.73,6,86,-2,101,.
Cc1ccc(S(=O)(=O)N(CCC(=O)O)c2ccccc2)cc1,i,0.98,.,.,-9,95,-0.1
COc1ccccc1NC(=O)c1csc2c1CCC(C)C2 (configuration not stated),i,0.97,0,138,0,104,.
Cc1sc(NC(=O)c2cc(-c3ccccc3)nc3ccccc23)c(C(N)=O)c1C,i,1,.,.,-11,107,-0.8
CC(Oc1ccc(Cl)cc1Cl)C(=O)NCCCN(C)C (configuration not stated),i,0.79,-27,67,-11,103,-0.9
O=c1[nH]c(CN2CCc3ccccc3C2)nc2ccccc12,i,0.93,39,47,1,104,0.5
CCOC(=O)c1c(C)n(C)c2cc(Br)c(C(=O)OC)cc12,i,0.92,.,.,-12,101,-1.3

# Sorted by count of non-hydrogen atoms (rising): some entries from above.
SMILES,HSV augment,HSV augment primary fold,Insulin prom inh,Insulin prom inh cell count,PKD1 kinase inh,RGS16-Gao HTS,GALR2 ag
CC(Oc1ccc(Cl)cc1Cl)C(=O)NCCCN(C)C (configuration not stated),i,0.79,-27,67,-11,103,-0.9
COc1ccc(CNc2c(C(=O)O)cnc3c2cnn3C)cc1,i,0.92,.,.,-2,97,.
Cc1c(C(=O)Nc2cccc([N+](=O)[O-])c2)csc1-c1ccccc1,.,.,-4,97,-10,106,-2.7

# The listing continues.
SMILES,HSV augment,HSV augment primary fold,Insulin prom inh,Insulin prom inh cell count,PKD1 kinase inh,RGS16-Gao HTS,GALR2 ag
COc1ccc(/C=C(\C#N)C(=O)c2c(C)[nH]c3ccccc23)cc1OC,i,1,-6,111,-2,38,-1.4
O=C(NNC1=C(C(=O)C(F)(F)F)CCC1)c1cccc(O)c1,i,0.93,-2,156,-15,124,-3.0
Cc1c(N=Cc2nc3ccccc3[nH]2)c(=O)n(-c2ccccc2)n1C,i,1.1,.,.,-5,99,0.1
CCn1c2ccccc2c2cc(NC(=O)C(C)Oc3ccccc3)ccc21 (configuration not stated),i,0.75,0,158,-8,92,-1.4

# In the list so far, these contain fluorine:
SMILES,HSV augment,HSV augment primary fold,Insulin prom inh,Insulin prom inh cell count,PKD1 kinase inh,RGS16-Gao HTS,GALR2 ag
CC(=O)C1=C(C)N(Cc2ccccc2)C(=O)N[C@@H]1c1cccc(C(F)(F)F)c1,i,0.94,-15,94,0,116,-1.4
CCC(=O)N1CCC2(CC1)Oc1ccc(F)cc1C(=O)C21CC(c2ccc(Cl)cc2)=NO1 (configuration not stated),i,0.71,.,.,.,100,.
OCCNCc1cc(Br)ccc1OCc1ccc(F)cc1,i,1.1,.,.,-5,102,.
COc1ccc(/C=N/Nc2ccc(C(F)(F)F)cc2[N+](=O)[O-])cc1,i,0.88,52,107,-6,85,-1.9
Fc1ccc(C2CC(c3ccco3)=Nc3ccccc3S2)cc1 (configuration not stated),i,1,0,81,10,96,.
Fc1ccc(CN(Cc2ccccc2)C(c2cccs2)c2nnnn2C2CCCCC2)cc1 (configuration not stated),i,1.1,29,120,-5,109,-2.6
Fc1ccc(C2c3[nH]c4ccccc4c3CCN2CCCn2cccn2)cc1 (configuration not stated),i,1.1,.,.,.,98,.
O=C(NC1CCCC1)C(c1ccc(N2CCOCC2)cc1)N(C(=O)c1ccco1)c1ccccc1F (configuration not stated),i,1.1,.,.,3,99,.
Cc1onc(-c2c(F)cccc2Cl)c1C(=O)OCN1C(=O)c2ccccc2C1=O,i,1,19,101,-15,102,-1.9
COc1ccc(F)cc1S(=O)(=O)NC(Cc1ccccc1)C(N)=O (configuration not stated),.,.,-33,116,1,101,-2.6
O=C(NNC1=C(C(=O)C(F)(F)F)CCC1)c1cccc(O)c1,i,0.93,-2,156,-15,124,-3.0
